Polio RdRp inh – poliovirus RdRp elongation inhibitors, primary screen, biochemical, fluorescence polarization, total intensity; Genome polyprotein (Poliovirus type 1 (strain Mahoney)), P03300; poliovirus polymerase elongation; hits give low values; % elongation, % (compound at 16.7 µg/mL); 0.66% of 150,000 active; AID 588519, 2011; in the data active means % elongation below about 90%; further: some results filed as inactive read as strong as hits
Target sequence (P03300 1749-2209 limits assumed): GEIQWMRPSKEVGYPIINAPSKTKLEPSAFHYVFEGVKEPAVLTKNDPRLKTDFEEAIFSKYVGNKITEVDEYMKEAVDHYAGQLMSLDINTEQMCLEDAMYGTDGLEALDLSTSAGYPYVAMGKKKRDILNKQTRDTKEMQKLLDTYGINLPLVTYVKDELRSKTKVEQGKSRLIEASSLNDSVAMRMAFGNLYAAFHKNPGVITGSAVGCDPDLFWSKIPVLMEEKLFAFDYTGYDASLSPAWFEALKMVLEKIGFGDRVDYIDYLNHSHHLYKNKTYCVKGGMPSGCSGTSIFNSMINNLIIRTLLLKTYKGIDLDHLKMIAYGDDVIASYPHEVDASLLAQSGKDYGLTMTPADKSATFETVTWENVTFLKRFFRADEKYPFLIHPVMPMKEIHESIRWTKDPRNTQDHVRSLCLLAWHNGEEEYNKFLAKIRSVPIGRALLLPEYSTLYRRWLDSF
Polio RdRp inh intensity – second read-out of Polio RdRp inh, no call of its own (marks repeat the call); % elongation; measured here: total intensity read-out; formula for this scale not given here;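 total fluorescence in place of polarization; lower means less elongation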
* hit, by the source's call. The list is partial; the hit share may differ from the screen's.

A first look (22 entries):
SMILES	Polio RdRp inh	Polio RdRp inh intensity
CCOc1ccc(-n2c(=O)c3c4c(sc3n(Cc3cc(=O)n5cc(Cl)ccc5n3)c2=O)CCC4)cc1	110	110
CCOc1ccc(C2c3c(oc4ccccc4c3=O)C(=O)N2c2nnc(C)s2)cc1OC (stereo unspecified)	106	104
Cc1cc(NC(=O)CSc2nc(-c3cccc(F)c3)nc3c2c(=O)n(C)c(=O)n3C)no1	108	112
COc1cccc(CNC(=O)C2CCCN(c3nn4cc(-c5ccc(C)cc5)nc4s3)C2)c1 (stereo unspecified)	106	101
Cc1cc(Cl)ccc1NC(=O)c1cccc(NC(=O)N2CCSc3ncccc32)c1	111	108
COc1ccc(-n2c(C)nc3cc(C(=O)NC4CCCC4)ccc32)cc1	101	109
Cc1nc2c(C(=O)NCc3ccccc3)c[nH]n2c(=O)c1Cc1ccccc1Cl	109	112
CCCc1nc2ccccc2n2c(-c3ccccc3)c3c(=O)n(C)c(=O)n(C)c3c12	105	91
CCOc1ccc(-n2c(-c3ccc(C)cc3)nc3c(cnn3-c3ccccc3)c2=O)cc1	103	106
Cc1cc(C)cc(NC(=O)N2CCC(N3CCCCC3)CC2)c1	108	110
Cc1ccc(CN2CCSc3ccc(C(=O)Nc4ccc(Cl)cc4)cc32)cc1	105	111
Cn1cc(S(=O)(=O)c2cccc(Cl)c2)c(=O)c2cc(F)c(N3CCN(c4ccc(F)cc4)CC3)cc21	105	105
COc1cccc(CNC(=O)CCNS(=O)(=O)c2cccc3nsnc23)c1	101	107
O=C(Nc1ccc(-c2nc3ccccc3s2)c(O)c1)c1ccc(Br)cc1	107	114
O=C(Nc1cccc(C(=O)N2CCN(c3ccccc3F)CC2)c1)c1nsc2ccccc12	104	110
CC(C)c1nc2ccc(C(=O)NCCCN3CCN(c4ccc(F)cc4)CC3)cc2o1	109	115
COc1ccc(-c2nsc(NC(=O)COc3ccc(C)c(C)c3)n2)cc1	101	104
CCN(Cc1ccccc1)C(=O)CN1C(=O)COc2ccc(S(=O)(=O)N3CCOCC3)cc21	117	119
Cc1ccc(NC(=O)c2cc(S(=O)(=O)N(C)C3CCCCC3)ccc2F)cc1C	103	108
CCc1ccc(NC(=O)CCc2c(C)nc3nc(-c4cc(OC)cc(OC)c4)nn3c2C)cc1	104	103
CC(C)Oc1ccc(CNC(=O)c2sc3ncccc3c2-n2cccc2)cc1	113	115
CCOCCCNC(=O)C(c1ccccc1)N1Cc2ccccc2C1=O (stereo unspecified)	105	108

This part in full (from the top)
SMILES	Polio RdRp inh	Polio RdRp inh intensity
CCOc1ccc(-n2c(=O)c3c4c(sc3n(Cc3cc(=O)n5cc(Cl)ccc5n3)c2=O)CCC4)cc1	110	110
CCOc1ccc(C2c3c(oc4ccccc4c3=O)C(=O)N2c2nnc(C)s2)cc1OC (stereo unspecified)	106	104
Cc1cc(NC(=O)CSc2nc(-c3cccc(F)c3)nc3c2c(=O)n(C)c(=O)n3C)no1	108	112
COc1cccc(CNC(=O)C2CCCN(c3nn4cc(-c5ccc(C)cc5)nc4s3)C2)c1 (stereo unspecified)	106	101
Cc1cc(Cl)ccc1NC(=O)c1cccc(NC(=O)N2CCSc3ncccc32)c1	111	108
COc1ccc(-n2c(C)nc3cc(C(=O)NC4CCCC4)ccc32)cc1	101	109
Cc1nc2c(C(=O)NCc3ccccc3)c[nH]n2c(=O)c1Cc1ccccc1Cl	109	112
CCCc1nc2ccccc2n2c(-c3ccccc3)c3c(=O)n(C)c(=O)n(C)c3c12	105	91
CCOc1ccc(-n2c(-c3ccc(C)cc3)nc3c(cnn3-c3ccccc3)c2=O)cc1	103	106
Cc1cc(C)cc(NC(=O)N2CCC(N3CCCCC3)CC2)c1	108	110
Cc1ccc(CN2CCSc3ccc(C(=O)Nc4ccc(Cl)cc4)cc32)cc1	105	111
Cn1cc(S(=O)(=O)c2cccc(Cl)c2)c(=O)c2cc(F)c(N3CCN(c4ccc(F)cc4)CC3)cc21	105	105
COc1cccc(CNC(=O)CCNS(=O)(=O)c2cccc3nsnc23)c1	101	107
O=C(Nc1ccc(-c2nc3ccccc3s2)c(O)c1)c1ccc(Br)cc1	107	114
O=C(Nc1cccc(C(=O)N2CCN(c3ccccc3F)CC2)c1)c1nsc2ccccc12	104	110
CC(C)c1nc2ccc(C(=O)NCCCN3CCN(c4ccc(F)cc4)CC3)cc2o1	109	115
COc1ccc(-c2nsc(NC(=O)COc3ccc(C)c(C)c3)n2)cc1	101	104
CCN(Cc1ccccc1)C(=O)CN1C(=O)COc2ccc(S(=O)(=O)N3CCOCC3)cc21	117	119
Cc1ccc(NC(=O)c2cc(S(=O)(=O)N(C)C3CCCCC3)ccc2F)cc1C	103	108
CCc1ccc(NC(=O)CCc2c(C)nc3nc(-c4cc(OC)cc(OC)c4)nn3c2C)cc1	104	103
CC(C)Oc1ccc(CNC(=O)c2sc3ncccc3c2-n2cccc2)cc1	113	115
CCOCCCNC(=O)C(c1ccccc1)N1Cc2ccccc2C1=O (stereo unspecified)	105	108
CCCCOc1ccc(CNC(=O)C2COc3ccc(OC)cc3C2)cc1 (stereo unspecified)	116	109
CCOc1ccccc1NC(=O)C1=C(C)Nc2ncnn2C1c1ccco1 (stereo unspecified)	110	109
Cc1cc(C)cc(-n2ccn(CC(=O)Nc3ccccc3C(F)(F)F)c(=O)c2=O)c1	111	115
COc1ccc(C(=O)NCc2ccc3c(c2)CCN3C(=O)c2ccc(C)cc2)cc1	110	106
Cc1nn(C(C)C(=O)NCCc2ccccc2)c(=O)c2c1sc1ccccc12 (stereo unspecified)	105	99
Cc1nc2cc(C(=O)NC3CCCCCC3)ccc2n1-c1ccc(Br)cc1	104	104
CCc1cccc(C)c1NC(=O)c1ccc2c(c1)CCN2S(=O)(=O)CC	107	107
COc1cccc(CNC(=O)c2cc(C)nc3c2c(C)nn3-c2ccc(C)cc2)c1	113	116
CCOC(=O)c1cccc(NC(=O)Cc2ccc(NC(=O)N3CCCCc4ccccc43)cc2)c1	21*	37*
CCOc1ccc(CCNC(=O)c2cc3cccc4c3n2CCS4)cc1	107	106
CCc1ccccc1-n1c2c(cc(-c3nc(-c4ccc(Cl)cc4)cs3)c1=O)C(=O)CC(C)(C)C2	107	113
CCOC(=O)c1[nH]c(C)c(CCC(=O)NCc2cccc(C)c2)c1C	110	109
Cc1cccc(OCC(=O)Nc2ccc3c(c2)nc(CN2CCCCC2)n3C)c1	108	108
Cc1ccc(NS(=O)(=O)c2ccc(-n3cccn3)cc2)cc1Cl	108	108
O=C(CSc1nc2ccsc2c(=O)n1Cc1ccc(F)cc1)NCc1ccc(Cl)cc1	109	115
CC(=O)c1ccc(NC(=O)c2noc3c2CSc2ccccc2-3)cc1	112	109
CC1N=C2c3ccccc3N=C(SCC(=O)NCc3ccc(Cl)cc3)N2C1=O (stereo unspecified)	107	99
CCOc1ccccc1-c1noc(CCCC(=O)Nc2cccc(C(F)(F)F)c2)n1	104	110
CCOc1ccc(OCC)c(NC(=O)C2CCCN(S(=O)(=O)c3ccc4c(c3)oc(=O)n4C)C2)c1 (stereo unspecified)	114	111
CC(=O)c1cccc(NC(=O)Cn2nc(C)n3cccc3c2=O)c1	106	101
CC1CCc2onc(C(=O)N3CCN(c4ccc(Cl)cc4)CC3)c2C1 (stereo unspecified)	113	113
CCn1c2c(c(=O)n3ncc(C(=O)Nc4ccc(F)c(Cl)c4)c13)CN(Cc1ccc(OC)cc1)CC2	106	106
O=C(Cn1ncc2ccc(Cl)cc21)NCc1ccc(F)cc1	116	118
CCOc1ccc(-c2nnc(SCC(=O)NC3CCCC3)nc2-c2ccc(OCC)c(OC)c2)cc1OC	102	98
COC(=O)c1c(Oc2ccc(C(C)=O)cc2)nnc(-c2ccccc2)c1-c1ccccc1	102	108
CCOc1ccc(CNC(=O)c2ccc3c(c2)sc2nc(-c4ccccc4)cn23)cc1	111	113
CC1=C(c2ccc(Cl)cc2)S(=O)(=O)N=C1N1CCC(C(=O)NCc2ccccc2F)CC1	101	106
CCc1ccc(-c2cc(C)no2)cc1S(=O)(=O)N1CCN(c2cccc(Cl)c2)CC1	110	110
Carrying on.
SMILES	Polio RdRp inh	Polio RdRp inh intensity
CC(C)C(=O)Nc1nnc(S(=O)(=O)N2CCc3ccccc32)s1	111	112
CCN(c1ccccc1)c1nnc(NC(=O)Nc2ccc(C)cc2)s1	113	115
Cc1nn(CC(=O)NCc2ccco2)c(=O)c2nn(-c3ccccc3)c(C)c12	101	102
Cc1cccc(Cn2c(SCc3ccc(C(=O)NCc4ccccc4)cc3)nc3cccnc32)c1	116	113
CCc1ccc(-n2c(=O)c3ccccc3n(CC(=O)NCCc3ccc(OC)c(OC)c3)c2=O)cc1	106	106
Cc1oc(C)c2c(=O)cc(-c3ccc4c(c3)OCO4)cc(OC(=O)c3cccc(Cl)c3)c12	104	102
CCCCn1c(=O)c2oc3ccccc3c2n(CC(=O)Nc2cccc(Cl)c2C)c1=O	104	109
O=C(Cn1ncc2c3ccccc3n(Cc3cccc(Cl)c3)c2c1=O)Nc1ccc(F)cc1F	133	144
COc1ccc(OC)c(NC(=O)c2c(NCc3cccs3)sc3c2CCCC3)c1	102	108
CCc1ccc(C2c3c(-c4ccccc4)n[nH]c3C(=O)N2c2ccc(C(=O)O)cc2)cc1 (stereo unspecified)	105	106
COc1ccc(C(=O)Nc2ccc(-c3nc4ccccc4s3)c(Cl)c2)cc1Cl	99	100
COc1ccc(-c2cn3c(n2)sc2cc(C(=O)NCc4ccccc4OC)ccc23)cc1	107	112
CCN(CC)c1ccc2cc(-c3nc(-c4ccc(Cl)cc4Cl)cs3)c(=O)oc2c1	97	287
O=C1CCc2cc(S(=O)(=O)NCc3ccccc3Cl)cc3c2N1CC3	109	117
Cc1ccc(Cl)cc1NC(=O)c1csnn1	95	96
O=C(CSc1nc2c(oc3ccccc32)c(=O)n1-c1ccccc1)Nc1ccc(F)c(Cl)c1	107	110
CS(=O)(=O)c1ccc2nc(NC(=O)CS(=O)(=O)c3ccc(Cl)cc3)sc2c1	101	109
COc1cccc(CNC(=O)CCc2c(C)nc3c(c(C)nn3-c3ccc(C)c(C)c3)c2C)c1	104	109
COc1ccc(NC(=O)c2cc(-c3ccccc3F)no2)cc1	109	115
COc1ccccc1-c1c(C)nn2c(N3CCN(c4ccc(Cl)cc4)CC3)cc(C)nc12	103	111
O=C(Nc1c(C(=O)N2CCN(c3ccccc3)CC2)oc2ccccc12)c1ccccc1F	102	109
CC1=C(c2ccc(C)cc2)S(=O)(=O)N(Cc2ccc(C(=O)Nc3ccc(C)c(F)c3)cc2)C1=O	108	113
COc1ccc(C2=C(N3CCN(c4cccc(C)c4)C(C)C3)c3ccccc3C2=O)cc1 (stereo unspecified)	108	108
Cc1cccc(NC(=O)CSc2nc(-c3cccs3)cc(C(F)(F)F)c2C#N)c1C	119	149
COc1cc2c(=O)n(CCC(=O)NCC3CCCO3)c(=O)n(CC(=O)Nc3c(C)cccc3C)c2cc1OC (stereo unspecified)	107	104
O=c1c2ccccc2nc(/C=C/c2cccc3ccccc23)n1-c1ccccc1Cl	111	116
COc1cccc(CNC(=O)c2cc3c(=O)oc4ccc(C)cc4c3s2)c1	110	113
O=C1CC(c2nnc(Cc3c(F)cccc3Cl)o2)CN1c1ccccc1 (stereo unspecified)	104	103
COc1ccc2oc(=O)c(C(=O)NCCc3c(C)[nH]c4ccc(F)cc34)cc2c1	105	109
O=C(NCCc1ccccc1)c1ccc2c(c1)N(Cc1ccccc1)C(=O)c1ccccc1S2(=O)=O	109	111

The last 2 records of the section above come first, to join the parts.
SMILES	Polio RdRp inh	Polio RdRp inh intensity
COc1ccc2oc(=O)c(C(=O)NCCc3c(C)[nH]c4ccc(F)cc34)cc2c1	105	109
O=C(NCCc1ccccc1)c1ccc2c(c1)N(Cc1ccccc1)C(=O)c1ccccc1S2(=O)=O	109	111
CNS(=O)(=O)c1ccc(NC(=O)c2cnn3c(C(F)F)cc(-c4ccccc4)nc23)cc1	103	106
COc1ccc(C(=O)NCC(c2cccnc2)N2CCc3ccccc32)cc1OC (stereo unspecified)	113	118
COc1ccccc1N1CCN(c2ncccc2-c2nc(-c3ccc(Cl)cc3)no2)CC1	110	113
Cc1cc(C)c2c(CC(=O)N3CCN(c4cccc(Cl)c4)CC3)coc2c1	112	97
Cc1ccc(NC(=O)Cn2cc3c(n2)CCCC3)c(Cl)c1	109	111
O=C(c1cc(-c2ccc(Br)cc2)n[nH]1)N1CCN(S(=O)(=O)c2ccc(Br)s2)CC1	103	103
CCC(C)NC(=O)CCSc1nc(-c2ccc3c(c2)OCO3)cc(C(F)(F)F)n1 (stereo unspecified)	108	106
COc1cc(OC)c(NC(=O)Nc2c(C)n(C)n(-c3ccccc3)c2=O)cc1Cl	105	107
CCCCN(CCCC)CCNC(=O)c1cn(C)c2ccc(S(=O)(=O)N3CCCC3)cc2c1=O	100	96
COc1ccc(/C=C/C(=O)Nc2sc(C)c(C)c2C(=O)O)cc1	104	106
O=C(NCCc1csc(-c2cccnc2)n1)c1ccccc1	110	109
CCc1ccc(NC(=O)c2cc(S(=O)(=O)N3CCCCC3)c[nH]2)cc1	107	105
COc1cccc(OCc2cc(=O)n3c(-c4ccccc4)csc3n2)c1	114	117
COc1ccc2[nH]c(=O)c(CN(C(=O)c3cccc(Cl)c3)c3ccccc3OC)cc2c1	117	121
O=C(Nc1ccc(Oc2ccccc2)cc1)c1ccc(F)c(S(=O)(=O)N2CCN(c3ccccc3F)CC2)c1	106	111
CCN(CC)CCN(C(=O)c1ccco1)c1nc2ccc(Cl)cc2s1	93	91
CCOc1ccc(C(=O)Nc2ccc3oc(-c4ccc(Br)cc4)nc3c2)cc1	106	108
CCOc1cc(C(=O)OCc2cc(=O)n3c(C)csc3n2)cc(OCC)c1OCC	107	106
O=C(Cn1c(=O)c(C(F)(F)F)nc2ccccc21)Nc1ccc(Br)cc1F	105	101
COc1cccc(-n2ccn(CC(=O)c3ccc(F)cc3)c(=O)c2=O)c1	106	113
CCC1CCCCN1C(=O)CSc1n[nH]c(-c2ccccc2Cl)n1 (stereo unspecified)	109	114
CC(=O)c1cccc(-n2c(=O)c3c4c(sc3n(CC(=O)Nc3ccccc3F)c2=O)CN(C(C)=O)CC4)c1	106	97
Cc1nc2sc(C(=O)N(C)Cc3ccccc3)c(NC(=O)c3ccccc3)c2c(C)c1Cl	109	113
O=C(CSc1nc2c([nH]c3ccccc32)c(=O)n1-c1ccc(Cl)cc1)N1CCCCCC1	112	105

Bioassay records (PubChem BioAssay)
